Screening data from PubChem BioAssay.
NPYLR7 ag – mosquito NPYLR7 agonism. HEK293T NPYLR7/Galpha15, GCaMP6s calcium fluorescence. activation, % at 10 µM. 270,000 tested, 0.15% active. AID 1259423; in the data active = activation above about 40%;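 note: 0% = vehicle and 100% = reference agonist at the receptor; some compounds past the cut are filed as inactive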
NPYLR7 ag max-min – further read-out of NPYLR7 ag, marked with its call; activation, %; measured here: Max-Min RFU normalised activation; some inactives read as strong as hits;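 span of the calcium signal over five minutes; 0% = vehicle and 100% = native peptide agonist; compound fluorescence can raise it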
* = called active by the depositor. The list is partial (hit frequency here may not be typical).

SMILES | NPYLR7 ag | NPYLR7 ag max-min
COc1ccc(C(CC(=O)N2CCN(C/C=C/c3ccccc3)CC2)c2c[nH]c3ccccc23)c(OC)c1 (stereo not drawn) | 20 | 14
COc1ccc(NC(=O)N2CCN(C(=O)c3cc4ccsc4n3Cc3cccc(OC)c3)CC2C)cc1 (stereo not drawn) | -2 | 0
COc1ccccc1-n1nc(CC(C)C)nc1C(C)n1ccnc1 (stereo not drawn) | 2 | 3
C=C(C)CN(CC)c1nc(N)c2c(N)nc3c(c2c1C#N)CC(=O)N3C12CC3CC(CC(C3)C1)C2 | -1 | -1
CC(C)NC(=S)NN=Cc1c(F)c(F)c(F)c(F)c1F | 3 | 3
CCOC(=O)c1cc(C)nn1C1CCN(C(=O)C2CCCCC2)CC1 | -2 | 3
COc1ccc(CN(C(=O)C2CC2)C(C)C)cc1OS(C)(=O)=O | -3 | 1
CCc1ccccc1C1c2cccn2CCCN1Cc1cc([N+](=O)[O-])ccc1OC (stereo not drawn) | 2 | 10
Cc1ccccc1C(CC(=O)NCCc1ccncc1)c1ccccc1 (stereo not drawn) | 7 | 3
CC(C)N1CCC1(C)C(=O)Nc1ccc2scnc2c1 (stereo not drawn) | -7 | -8
Fc1ccc(Oc2cc(N3CCN(c4ccccc4F)CC3)ncn2)c(Cl)c1 | 13 | 14
CCC(C)c1ccc(-n2c(-c3cc(C(F)(F)F)ccc3F)nc3ccccc3c2=O)cc1 (stereo not drawn) | 5 | 2
CCC(=O)N(c1nnc(SCC(=O)c2c(N)n(C)c(=O)[nH]c2=O)s1)C1CC1 | 0 | 8
CCOCCN1CCN(C(=O)c2cn(CCOC)cc3c(=O)n(-c4ccccc4)nc2-3)CC1 | -2 | -7
O=C(C1COc2ccccc2O1)N1CCN(c2ccccc2O)CC1 (stereo not drawn) | 2 | 4

Going on with the list.
SMILES | NPYLR7 ag | NPYLR7 ag max-min
CCCCn1[nH]c(-c2ccccc2)cc1=O | 3 | 2
CC1CCCN(CC(=O)Nc2ccc(N3CCCC3=O)cc2)C1 (stereo not drawn) | 15 | 10
COc1cc(N(C)CCC(O)c2ccccc2)ncn1 (stereo not drawn) | -1 | -3
COC(=O)c1c(C)[nH]c(C(=O)C(C)OC(=O)c2c(C)noc2C)c1C (stereo not drawn) | 0 | 0
Cc1ccc(Cl)cc1-n1c(CNC(=O)c2cc(C(F)(F)F)cc(C(F)(F)F)c2)nnc1SCc1ccccc1 | 11 | 20
CSCCNC(=O)C1(C)CCN1C(=O)c1ccc(C(C)(C)C)cc1 (stereo not drawn) | -2 | -3
O=C(OCc1nnc(-c2cccs2)o1)c1cc2c(s1)CCCC2 | 3 | 2
Cc1ccc(Cc2nc(N3CCN(C(=O)c4cccs4)CC3)c3cnn(-c4ccccc4)c3n2)cc1 | -5 | 4
CCN1CCN(C(=O)C(C)Sc2nc3ccccc3c(=O)n2-c2ccc(C)cn2)CC1 (stereo not drawn) | 6 | 2
Cc1ccc(C(NC(=O)C2CCN(CCCOc3ccccc3)CC2)c2ccccn2)cc1 (stereo not drawn) | -2 | -4
CCc1ccc(/C=C2\Oc3c(ccc4c3CN(C3CCS(=O)(=O)C3)CO4)C2=O)cc1 (stereo not drawn) | 66* | 56*
CCOC(=O)c1cccnc1Oc1cccc(NC(=O)C(c2ccccc2)C2CCCCC2)c1 (stereo not drawn) | -20 | -32
COCC(=O)NCC1c2cc(OC)c(OC)cc2CCN1C(=O)Nc1ccccc1OC (stereo not drawn) | 32 | 28
CCSc1nc2ncc(C#N)c(N)n2n1 | -1 | 23
Cc1cccc(=O)n1CCCNS(=O)(=O)NCc1ccccc1 | -4 | -5

Additional records follow.
SMILES | NPYLR7 ag | NPYLR7 ag max-min
CC12CC(NC(=O)N1c1cccc(C(=O)Nc3ccccc3C(N)=O)c1)c1ccccc1O2 (stereo not drawn) | 6 | 5
CC(Cn1cccn1)c1n[nH]c(C2CC2)n1 (stereo not drawn) | 4 | 2
O=c1c2nnn(-c3cccc(Cl)c3)c2ncn1Cc1ccc(C(F)(F)F)cc1 | 4 | 8
C=C(C)COc1ccccc1C(=O)NCCN1CCNC1=O | -1 | -5
CCOc1ccc(-c2ccc(OCCNC(=O)CC)nn2)cc1 | -2 | -1
O=C(NCc1ccnc(N2CCCC2)c1)c1cc2c(s1)CCC2 | 1 | -1
NC(=O)c1cc2cc([N+](=O)[O-])ccc2o/c1=N/O | -7 | -12
CC1CCCN(S(=O)(=O)c2ccc(C(=O)N3CCCC3)cc2)C1 (stereo not drawn) | 12 | 9
Cc1cc(C)n(CCCC(=O)N2CCC3(CC2)NCCNC3=O)n1 | 16 | 2
Cn1ccsc1=NC(=O)CCN1C(=O)c2ccccc2C1=O | -2 | -4
Cc1nn(-c2ccccc2)c(Cl)c1CN(C)C(C1CC1)C1CC1 | 7 | 3
COc1ccc(OC)c2sc(N(Cc3cccnc3)C(=O)c3ccc(Br)s3)nc12 | -16 | -15
O=C(c1[nH]cnc1-c1ccccc1)N1CCCC(Nc2ccc(F)cc2)C1 (stereo not drawn) | 7 | 6
CN(C)CCCN(C(=O)CN1C(=O)CCC1=O)c1nc2ccc(Br)cc2s1 | 6 | 3
CCCC(C)NC(=O)CSc1nnc(Nc2ccc(CC)cc2)s1 (stereo not drawn) | -2 | -1

Of the compounds above, 2 contain a cyano group:
SMILES | NPYLR7 ag | NPYLR7 ag max-min
C=C(C)CN(CC)c1nc(N)c2c(N)nc3c(c2c1C#N)CC(=O)N3C12CC3CC(CC(C3)C1)C2 | -1 | -1
CCSc1nc2ncc(C#N)c(N)n2n1 | -1 | 23

(list continues)
SMILES | NPYLR7 ag | NPYLR7 ag max-min
COc1ccc2c(=O)c3c(=O)n(-c4ccccc4)c(C4CCCCC4)nc3oc2c1 | 5 | 1
CCCS(=O)(=O)N1CCN(CC2CC=CCC2)CC1 (stereo not drawn) | 13 | 11
CCCCSc1nnc2c(n1)OC(c1ccc(OC)c(OC)c1)Nc1ccccc1-2 (stereo not drawn) | -9 | -10
C#CCN1C(=O)c2ccccc2S1(=O)=O | 0 | 4
Cc1nc(C)c(C(=O)Nc2c(C)nc3ccccn3c2=O)s1 | -1 | -3
Cc1ccc2c(n1)O[C@H](COc1ccccc1)CN(Cc1ccc3c(c1)OCO3)C2=O | -9 | -9
CN(C)CCNc1ccccc1CN | 18 | 10
CCn1c(SCC(=O)c2cc(C)n(C3CC3)c2C)nnc1C1CC1 | 7 | 5
FC(F)(F)c1ccc(NCC2CCCO2)nc1 (stereo not drawn) | 1 | 0
O=C(C1CCOCC1)N(CC1CCN(Cc2ccccc2F)CC1)CC1CCCO1 (stereo not drawn) | 5 | 3
Cc1ccc(C)n1-c1c(C(=O)NC2COc3ccccc32)cnn1C (stereo not drawn) | 3 | 1
COc1ccc(-n2c(CCC(=O)NCc3ccccc3OC)ccc2-c2ccc(Cl)cc2)cc1 | 0 | -2
Cc1cccc(N(C)c2cc(-c3ccc(F)cc3)nc3ccnn23)c1 | -2 | -6
CNC(=O)c1cccc(NC(=O)CCC(=O)c2cc(C)ccc2OC)c1 | 1 | -1
CCCN(CCO)C(=O)c1ccccc1I | -16 | -14

Next section
SMILES | NPYLR7 ag | NPYLR7 ag max-min
NC(=O)c1ccccc1NC(=O)CCN1C(=O)c2cccc([N+](=O)[O-])c2C1=O | -5 | -6
COCC(C)NC(=O)C(C)SCc1nc2scc(-c3ccccc3)c2c(=O)[nH]1 (stereo not drawn) | 1 | 15
COc1ccc(CCNS(=O)(=O)c2ccccc2)cc1 | -3 | 3
CN(C)c1ccc(NC(=O)N2CCC(N3CCCC3)C2)cc1Cl (stereo not drawn) | 7 | 2
COc1ccc(Nc2ccc3c(c2)=NC2(CCCCC2)[N+]=3[O-])cc1 | -17 | -25
O=C(CCC1(Cc2cccs2)CCC(=O)N1)NCC1COc2ccccc2O1 (stereo not drawn) | 15 | 7
Cc1ccccc1Cn1c(C)c(N2CCOCC2)c(C)c1C(=O)NCCN1CCOCC1 | 27 | 27
CCOC(=O)Cc1csc(NC(=O)c2cc(-c3ccccc3)nc3ccccc23)n1 | 1 | 7
O=S(=O)(NCc1csc(Br)c1)N1CCCCC1 | 4 | 4
CC(=O)Nc1ccc(S(=O)(=O)NNC(=O)CCc2ccccc2)cc1 | 1 | 2
CCCc1nc(N2CCN(C(=O)Nc3cccc(OC)c3)CC2)c2c(-c3cccc(C(F)(F)F)c3)noc2n1 | 14 | 28
Cn1cccc1C(=O)NC(=O)CSc1nnc2n1CCCCC2 | -1 | 5
CC1(C(=O)NS(=O)(=O)c2ccc(F)cc2F)CCN1C(=O)CC1CC1 (stereo not drawn) | 0 | -1
CC1(C)Cc2c(sc3ncnc(N)c23)CO1 | 3 | 4
CS(=O)(=O)C(C#N)=Cc1cccc(O)c1 | 9 | 4

Copied from the listing, 4 compounds:
SMILES | NPYLR7 ag | NPYLR7 ag max-min
NC(=O)c1ccccc1NC(=O)CCN1C(=O)c2cccc([N+](=O)[O-])c2C1=O | -5 | -6
COCC(C)NC(=O)C(C)SCc1nc2scc(-c3ccccc3)c2c(=O)[nH]1 (stereo not drawn) | 1 | 15
COc1ccc(CCNS(=O)(=O)c2ccccc2)cc1 | -3 | 3
CN(C)c1ccc(NC(=O)N2CCC(N3CCCC3)C2)cc1Cl (stereo not drawn) | 7 | 2

The list continues.
SMILES | NPYLR7 ag | NPYLR7 ag max-min
CC(C)N(CCNC(=O)NC1CC1)C1CC1 | 4 | 0
CCN(C)C(=O)c1ccc(-c2cc(N)nc3[nH]ccc23)nc1 | 1 | -2
Cc1nc(-n2cccc2)sc1C(=O)N1CCN(CC(=O)c2ccco2)CC1 | -3 | -4
COCCCN1C(=O)C(=Cc2c(NCC3CCCO3)nc3c(C)cccn3c2=O)SC1=S (stereo not drawn) | 7 | 6
CC1CCN(CCCNS(=O)(=O)c2cccc(Br)c2)CC1 | 2 | 9
Cc1ncc(-c2c(-c3ccccc3)ncn2CCOc2ccccc2)[nH]1 | 10 | 4
CSc1ccc(C(=O)CCC(=O)N2CCC3(CC2)OCCCO3)cc1 | -12 | -16
Cc1ccc(CNC(=O)CCl)cc1F | -1 | -3
N#CC(C#N)C(=N)c1ccccc1 | 2 | 1
COc1ccc(C(C)=O)cc1CC1(C)C(=O)Nc2ccc(-c3cccc(C(F)(F)F)c3)cc21 (stereo not drawn) | -1 | 8
O=C(O)c1cc(S(=O)(=O)Nc2cccc(F)c2)ccc1Cl | 2 | 4
CN1[C@H]2CC[C@@H]1CN(C(=O)c1csc(-c3cccs3)n1)CC2 | 3 | 3
Cc1ccc(-n2c(O)c(C3=c4ccccc4=NC3=O)sc2=O)cc1 | -2 | -9
O=C(c1ccc(CSc2nnc(-c3ccco3)n2-c2ccccc2F)cc1)N1CCOCC1 | -1 | 2
Cc1ccnc(CC(C)N(C)C(=O)c2cc3ccccn3n2)c1 (stereo not drawn) | -2 | -6

(listing goes on)
SMILES | NPYLR7 ag | NPYLR7 ag max-min
Cn1ccnc1Sc1ccc(F)cc1NC(=O)C1CC1 | 4 | 3
O=C1c2ccccc2C(=O)C1c1cc(=O)[nH]c2ccccc12 | 7 | 4
Cc1cccc(NC(=O)Nc2ccc(N3CCCC3)c(C(=O)NCc3cccnc3)c2)c1 | 7 | 9
O=C(NCc1cccnc1)c1cc(N2CCOCC2)nc2ccccc12 | 26 | 17
CCc1cn[nH]c1C1CCCN(C(=O)CCc2nc3ccc(F)cc3[nH]2)C1 (stereo not drawn) | 7 | 4
CCc1cc(N2CCOC(CCOC)C2)nc(N2CCOCC2)n1 (stereo not drawn) | -3 | -11
COc1ccc(-c2coc3c(C(=O)NCCN(C)C)cccc23)c(C)c1 | -12 | -14
Nc1nccnc1C(=O)NNC(=O)CSc1ccc(Cl)cc1 | -1 | 2
COc1ccc(-c2csc3ncn(CC(O)COc4ccccc4)c(=O)c23)cc1 (stereo not drawn) | 1 | 22
OCc1ccc(-c2nccn2CCCn2ccnc2)o1 | 0 | -3
Cc1cc2cc(CNC(=O)CCC(=O)O)ccc2[nH]1 | 4 | 0
Cn1nnc2c(N3CCN(C(=O)C(C)(C)C)CC3)ncnc21 | 0 | 19
CC(C)(C)OC(=O)NCC(C)(C)c1nc(C2CC2)no1 | 8 | 7
CCCC1(CCC)NC(=O)N(Cc2nnc(-c3ccc(OC)cc3)o2)C1=O | 4 | 4
Cc1ccc2oc(Cc3cccc(NC(=O)c4ccccc4C)c3)nc2c1 | 31 | 28

Other results follow:
SMILES | NPYLR7 ag | NPYLR7 ag max-min
CC(C)c1ccc(CN2CCCC(O)(CN3CCCC(F)(F)C3)C2=O)cc1 (stereo not drawn) | 10 | 7
O=C(CCCCl)Nc1ccc(OC(F)(F)C(F)F)c(NC(=O)CCCCl)c1 | -2 | -6
N#CC(=Cc1cccc(F)c1)S(=O)(=O)c1ccc(Br)cc1 | 9 | 4
O=C1C2C3C=CC(CO)(O3)C2C(=O)N1c1cccc2ccccc12 (stereo not drawn) | -1 | -1
O=C(NC(c1ccc2ccccc2n1)c1cccs1)C1CCN(CCCc2ccccc2)CC1 (stereo not drawn) | 3 | 7
O=C1OC2(OC=C(c3ccccc3)C2=O)c2ccccc21 (stereo not drawn) | 2 | 1
CCOCc1ccccc1NC(=O)NC1CCN(CC(F)(F)F)C1 (stereo not drawn) | -4 | -7
CCOC(=O)C1CCN(C(=O)c2cc(-c3ccc(OC)cc3)n3nc(C)c(-c4ccccc4)c3n2)CC1 | 4 | 20
COc1cccc(-c2ccc(NC(=O)C3CCCN(C(=O)C4CCC4)C3)cc2)c1 (stereo not drawn) | -5 | -8
CC(C)C(=O)c1ccc(-n2ncc3cccnc32)s1 | -1 | 0
CC(c1nc(-c2ccncc2)no1)n1ccnc1-c1cccc(-n2cccn2)c1 (stereo not drawn) | 6 | 3
COCCNCC(=O)N(CCc1c[nH]c2ccccc12)Cc1ccccc1OC | -3 | -12
Cc1ccc(-n2nc(C)cc2N/C=C/C(=O)C(F)(F)F)cc1 | 4 | 5

One compound at a time (already shown).
O=C1C2C3C=CC(CO)(O3)C2C(=O)N1c1cccc2ccccc12 (stereo not drawn) is entered as NPYLR7 ag = -1; NPYLR7 ag max-min = -1
O=C(NC(c1ccc2ccccc2n1)c1cccs1)C1CCN(CCCc2ccccc2)CC1 (stereo not drawn) is entered as NPYLR7 ag = 3; NPYLR7 ag max-min = 7
O=C1OC2(OC=C(c3ccccc3)C2=O)c2ccccc21 (stereo not drawn) is entered as NPYLR7 ag = 2; NPYLR7 ag max-min = 1
